# LASV entry inh: qHTS for Inhibitors of binding or entry into cells for Lassa Virus | Lassa virus pseudotype entry inhibition, cell reporter; control for the full effect not named in the record | Potency, µM (doses to about 37.9 µM), inactives show top-dose activity change, negative = inhibition, usual class: inhibitors | hit rate 1.2% among 300,000; active means well fitted inhibition curve with a large enough effect; inconclusive means small, poorly fitted or top-dose-only effect, or effect the other way; inactive means flat fitted curve, though single readings scatter; tested in HEK293 cells; also: % is scaled to controls: 0 for no effect and ±100 for the full control effect; nearly all actives have a fitted effect of over 50% in size; luciferase read-out
# RE007 growth inh: qHTS Assay for Inhibitors of the HIV-1 protein Vpr. S. pombe RE007 Vpr strain, BacTiter-Glo ATP luminescence, 24 h; control for the full effect not named in the record. Potency, µM (highest dose often 92.2 µM), inactives show at the top dose activity change, negative = less growth. hit rate 0.21% among 360,000; active = well fitted falling curve with a large enough effect; inconclusive = small, poorly fitted or top-dose-only effect; inactive = no such curve, though single readings can be large or run the other way;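 also: % is scaled to controls: 0 for no effect and ±100 for the full control effect; nearly all actives have a fitted effect of over 50% in size; the assay follows cell death caused by Vpr and the record does not say whether a fall means rescue or toxicity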
#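 Fission yeast RE007 carrying one integrated HIV-1 vpr copy, seeded at OD 0.01 in PMG+AL medium with 23 nL pinned compound. Grown 24 h at 30 degrees; viability read by BacTiter-Glo luminescence after 5 min.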
# SARS PLpro yeast: qHTS of Yeast-based Assay for SARS-CoV PLP | S. cerevisiae expressing SARS-CoV PLpro, growth rescue; control for the full effect not named in the record | Potency, µM (highest dose often 32.9 µM), inactives show at the top dose activity, positive = growth rescue | hit rate 0.19% among 330,000 | AID 485353, 2010; also: 0% is about no effect; nearly all actives have a fitted effect of over 55% in size; growth read by luminescence after 48 h
# NS1 inh: qHTS Assay for Inhibitors of Influenza NS1 Protein Function; S. cerevisiae slowed by influenza A NS1, growth recovery by OD600; Potency, µM (series often up to 46.1 µM), inactives show at the highest dose activity, positive = more growth; hit rate 0.4% among 270,000; also: actives are rising curves; nearly all actives have a fitted effect of over 50% in size
#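 In this qHTS, NS1 from influenza A is expressed in budding yeast, where it slows growth. Cells are switched from glucose to 2% galactose medium (pH 6.0, -URA), treated with compound, and growth recovery is read at OD600.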
# MARV entry inh: qHTS for inhibitors of binding or entry into cells for Marburg Virus; Marburg virus pseudotyped entry inhibition, cell reporter; control for the full effect not named in the record; about a third of the inactives were read at about 46 µM; Potency, µM (series often up to 37.8 µM), for the others: at the highest dose activity change, negative = inhibition, hits mostly inhibitors; hit rate 1.8% among 300,000; active = well fitted inhibition curve with a large enough effect; inconclusive = small, poorly fitted or top-dose-only effect, or effect the other way; inactive = flat fitted curve, though single readings scatter; tested in HEK293 cells; about a fifth of its hits are not listed in these tables; also: % is scaled to controls: 0 for no effect and ±100 for the full control effect; luciferase read-out
# StopGo reporter: High Throughput Screening for Foot and Mouth Disease Virus Antivirals; human cells with a luciferase reporter of 2A StopGo recoding; control for the full effect not named in the record; Potency, µM (doses to about 57.9 µM), for the others: at the top dose signal change, negative = less light; hit rate 1.2% among 410,000; active = well fitted falling curve with a large enough effect; inconclusive = small, poorly fitted or top-dose-only effect; inactive = no such curve, though single readings can be large or run the other way; tested in HEK293T cells; also: % is scaled to controls: 0 for no effect and ±100 for the full control effect; nearly all actives have a fitted effect of over 45% in size; luciferase light after 4 h
# The depositor's hits bear a star; ? = inconclusive; / = no result given; & = joins results of further samples; ! = repeats disagree; [ ] = another dose, or the depositor's remark. Unless noted, calls follow the shape of the dose curve; as a rule, active means well fitted rising curve with a large enough effect; inconclusive means small, poorly fitted or top-dose-only effect; inactive means no such curve, though single readings can be large or run the other way. Potency is read from the fitted curve at half-maximal effect.
SMILES,LASV entry inh,RE007 growth inh,SARS PLpro yeast,NS1 inh,MARV entry inh,StopGo reporter
CC(O)C1C=CC=CC(=O)OC2CC3OC4C5OC5(C)C(O)CC4(COC(=O)C(O)C(C)CCO1)C2(C)C31CO1 (stereo not drawn),/,-13%,/,/,0.13µM*,/
CC1CCOC(=O)C=CC=CC(=O)OC2CC3OC4C5OC5(C)C(O)CC4(COC(=O)C1O)C2(C)C31CO1 (stereo not drawn),/,-19%,/,/,?,/
Cc1cc(-c2ccc(N=Nc3c(S(=O)(=O)O)cc4cc(S(=O)(=O)O)cc(N)c4c3O)c(C)c2)ccc1N=Nc1c(S(=O)(=O)O)cc2cc(S(=O)(=O)O)cc(N)c2c1O,?,/,1%,/,16µM*,/
C[C@@H]1CN(S(=O)(=O)c2ccc3c(c2)OCCO3)CCN1S(=O)(=O)c1c(F)cccc1F,/,/,13%,/,/,-22%
CN(C)CCCNC(=O)c1ccc(-c2cc(O)c3ncccc3c2)cc1,/,/,3%&4%,/,/,6%
O=S(=O)(NC1CCN(S(=O)(=O)c2c(F)cccc2F)CC1)c1ccc2c(c1)OCCO2,/,/,-1%,/,/,17%
O=C(NNC(=O)c1cc2ccccc2[nH]1)OCc1ccccc1,/,/,1%,/,/,28%
O=S(=O)(c1cccc(Br)c1)N1CCN(S(=O)(=O)c2ccc3c(c2)OCCO3)CC1,/,/,-3%,/,/,-27%
Cc1ccc(F)c(Cn2cnc3c(cnn3C(C)(C)C)c2=O)c1Cl,/,/,-3%,/,/,?
Oc1cc(NCCc2cccnc2)cc2cccnc12,/,/,2%&-2%,/,/,?
COc1ccc(C2=Nn3c(nnc3-c3ccccc3OC)SC2)cc1OC1CCOC1 (stereo not drawn),/,/,-3%,/,/,-25%
CC1(C)O[C@@H]2[C@@H](CO[C@@]3(COS(N)(=O)=O)OC(C)(C)O[C@@H]23)O1,/,/,2%,/,/,17%
CCC(=O)NC(c1ccco1)c1cc(Cl)c2cccnc2c1OC (stereo not drawn),/,/,-7%&-5%,/,/,0%
O=C(O)c1ccc(-c2noc(-c3cccc(Cl)c3)n2)cc1,/,/,-6%,/,/,44%[activator]
Oc1cc(Nc2ccccc2)cc2cccnc12,/,/,-6%&0%,/,/,-24%
CC(=O)Nc1sc2c(c1-c1nc3ccccc3s1)CN(C(C)C)CC2,/,/,-8%,/,/,-27%
Cc1ccc2nc(CSc3nc(C)nc4c3oc3ccccc34)[nH]c2c1,/,/,-8%,/,/,-29%
Nc1scc2c(C(=O)O)nn(-c3ccccc3)c(=O)c12,/,/,1%,/,/,-9%
O=C(c1ccc2c(c1)OCCO2)N1CCN(S(=O)(=O)c2c(F)cccc2F)CC1,/,/,-2%,/,/,?
CC1(C)CCc2cc(S(=O)(=O)N3CCN(S(=O)(=O)c4c(F)cccc4F)CC3)ccc2O1,/,/,-6%,/,/,33%[activator]
CS(=O)(=O)c1ccccc1-c1csc(N2CCC(C(N)=O)CC2)n1,/,/,-1%&1%,/,/,67%[activator]
Cc1cc(F)cc(C)c1Cn1cnc2c(cnn2C(C)(C)C)c1=O,/,/,18%,/,/,-2%
O=S(=O)(NCCCCCNS(=O)(=O)c1c(F)cccc1F)c1ccc2c(c1)OCCO2,/,/,8%,/,/,56%[activator]
CC(=O)NC(c1ccco1)c1cc(Cl)c2ccc(Cl)nc2c1O (stereo not drawn),/,/,-4%&-1%,/,/,0%
CC(=O)N1CCN(c2ccc(NCc3ccc(-c4ccc(Br)cc4)o3)cc2)CC1,/,/,-3%,/,/,?
O=S(=O)(c1ccc2c(c1)OCCO2)N1CCN(S(=O)(=O)c2ccccn2)CC1,/,/,-4%,/,/,0%
NC(=O)C1CCN(c2nc(-c3cccc(Cl)c3)cs2)CC1,/,/,-15%&-2%,/,/,65%[activator]
CC(CCCCC(=O)Nc1ccc(C(F)(F)F)cc1)NCCc1cnc[nH]1 (stereo not drawn),/,/,1%,/,/,-9%
O=C(c1ccccc1)N(C(=O)c1ccccc1)c1ncnc2c1C(c1ccccc1)c1c(ccc3ccccc13)O2 (stereo not drawn),/,/,1%,/,/,?
COc1ccc(C2=Nn3c(nnc3-c3ccccc3F)SC2)cc1OC1CCCC1,/,/,6%,/,/,-39%
Cc1cccc(CNc2ncnc3ccc(-c4ccc5c(c4)OCCO5)cc23)c1,/,/,1%&1%,/,/,?
OCCN1C[C@H](O)[C@@H](O)[C@H](O)[C@H]1CO,/,/,5%,/,/,-1%
Fc1cccc(CNc2ncnc3ccc(-c4ccc5c(c4)OCO5)cc23)c1,/,/,3%&-10%,/,/,?
COc1cccc(CNc2ncnc3ccc(-c4c(C)noc4C)cc23)c1,/,/,-5%&6%,/,/,0%
N#Cc1ccc(-c2ccc(C3Nc4ccccc4C(=O)N3O)o2)cc1 (stereo not drawn),/,/,2%,/,/,-17%
C=C1C[C@@H]2[C@H](CC[C@]3(C)C(=O)CC[C@@H]23)[C@@]2(C)C=CC(=O)C=C12,/,/,1%,/,/,-14%
CC(=O)NC(c1ccco1)c1cc(Cl)c2ccccc2c1O (stereo not drawn),/,/,-14%,/,/,-16%
Oc1cccc2c(-c3nn[nH]n3)ccnc12,/,/,2%&2%,/,/,-19%
c1ccc(-c2nc(SCc3nc4ccccc4[nH]3)c3oc4ccccc4c3n2)cc1,/,/,3%,/,/,?
CC(C)(C)n1ncc2c(=O)n(Cc3c(Cl)cccc3Br)cnc21,/,/,-1%,/,/,?
CCC(=O)NC(c1cccs1)c1cc([N+](=O)[O-])c2cccnc2c1OC (stereo not drawn),/,/,-1%,/,/,-7%
CCC(=O)NC(C)c1cc(Cl)c2ccccc2c1O (stereo not drawn),/,/,1%,/,/,-21%
Oc1cc(-c2ccc(N3CCCCC3)nc2)cc2cccnc12,/,/,1%&-1%,/,/,12%
CCC(=O)NC(c1ccc(C)cc1)c1cc(Cl)c2cccnc2c1O (stereo not drawn),/,/,?,/,/,-21%
CN(Cc1ccco1)Cc1ccc(O)c2ncccc12,/,/,0%&-1%,/,/,2%
O=C(COC(=O)CNC(=O)C1CCCCC1)Nc1ccccc1Cl,/,/,-1%,/,/,-3%
Cc1noc(C)c1-c1csc(N2CCC(C(N)=O)CC2)n1,/,/,-2%&-2%,/,/,88%[activator]
Cc1cccc(-c2ccc3ncnc(NCc4cccnc4)c3c2)c1,/,/,6.3µM*!,/,/,-23%
FC(F)Oc1ccc(C2=Nn3c(nnc3-c3ccccc3Cl)SC2)cc1OCC1CC1,/,/,-2%,/,/,0%
NC(=O)C1CCN(c2nc(-c3ccc4occc(=O)c4c3)cs2)CC1,/,/,-18%&-4%,/,/,7%

# (next part)
SMILES,LASV entry inh,RE007 growth inh,SARS PLpro yeast,NS1 inh,MARV entry inh,StopGo reporter
O=C(OCC#CCSc1nnc(-c2cccc3ccccc23)o1)c1ccc(F)cc1,/,/,4%&-7%,/,/,-11%
N#CN1CCC(NS(=O)(=O)c2ccc(C(F)(F)F)cc2)CC1,/,/,8%,/,/,30%[activator]
O=C1c2ccccc2NC(c2ccc(-c3cccc(F)c3)o2)N1O (stereo not drawn),/,/,10%,/,/,11%
Cn1nnnc1Sc1ncnc2scc(-c3ccsc3)c12,/,/,-4%,/,/,16µM*
O=C(Nc1ncnc2c1C(c1ccccc1)c1c(ccc3ccccc13)O2)c1ccccc1 (stereo not drawn),/,/,-5%,/,/,?
O=C(COC(=O)CNC(=O)C1CCCCC1)Nc1cc(C(F)(F)F)ccc1Cl,/,/,0%,/,/,3%
CN(C)c1ccc(-c2cc(O)c3ncccc3c2)cc1,/,/,-3%&2%,/,/,31%[activator]
NC(=O)C1CCN(c2nc(-c3cccs3)cs2)CC1,/,/,6%&-3%,/,/,11%
CN(C)CCCNc1cc(O)c2ncccc2c1,/,/,5%&1%,/,/,?
O=S(=O)(c1c(F)cccc1F)C1CCN(S(=O)(=O)c2ccc3c(c2)OCCO3)CC1,/,/,-8%,/,/,0%
Cc1ccc(-c2csc(N3CCC(C(N)=O)CC3)n2)cc1,/,/,-6%&0%,/,/,44%[activator]
Cc1ccsc1CNc1ncnc2ccc(-c3c(C)noc3C)cc12,/,/,5%,/,/,?
O=c1cc2oc3cc(O)c(O)cc3c(-c3ccccc3O)c-2cc1O,/,/,5%,1%,/,0%
O=Cc1c[nH]c2ncccc12,/,/,0%,-6%,/,-2%
Cc1cc2nc(CS)[nH]c2cc1C,/,/,0%,6%,/,-15%
CN(CCO)c1ccc(/C=N/Nc2nncc3ccccc23)cc1,/,/,-3%,-1%,/,10µM*
CNC(=O)N(O)C1N(/N=C/c2cc(Br)ccc2O)C(=S)SC1(C)C (stereo not drawn),/,/,-1%,-5%,/,26%
Nc1o[nH]c(=O)c1Cc1ccccc1,/,/,6%,-3%,/,4%
CC(C)C(=O)Nc1c(-c2cccc(Cl)c2)c(=O)c2ccccc2n1C,/,/,-2%,-1%,/,-11%
COc1ccc2c(c1)C(=NNc1ccc(C(=O)O)cc1)c1cc(OC)ccc1-2,/,/,0%,11%,/,-17%
Cc1cc(C)c2c(SC(C)C)nc(N)nc2n1,/,/,-2%,0%,/,?
O=C(/C=C/c1ccco1)c1cccnc1,/,/,-1%,10%,/,-15%
CC(=O)Nc1cccc(Oc2ncccc2[N+](=O)[O-])c1,/,/,-2%,3%,/,-19%
Nc1ccc(S(=O)(=O)c2ccccc2)nc1,/,/,2%,3%,/,3%
O=[N+]([O-])c1ccc(N/N=C/c2ccccc2O)cc1,/,/,-9%,-71%,/,11%
CCOCCc1c(O)nc(SC)[nH]c1=O,/,/,1%,7%,/,11%
S=C1NC2(CCCCC2)NC12CCCCC2,/,/,0%,7%,/,-4%
CCCC(=O)N(C)C1=Nc2ccc(Cl)cc2C(c2ccccc2)=[N+]([O-])C1,/,/,-5%,-6%,/,-21%
NC1=NC(c2ccc(Cl)cc2)N(c2ccc(S(N)(=O)=O)cc2)C(N)=N1 (stereo not drawn),/,/,3%,-1%,/,-11%
O=C(NC(=S)Nc1cc(Cl)ccc1O)c1cccc(Br)c1,/,/,0%,-70%,/,43%[activator]
CSc1ccc(/C=N\Nc2nncn2N)cc1,/,/,-7%,-50%,/,36%[activator]
COc1ccc(C2NN=C(c3ccc(C)cc3)S2)cc1 (stereo not drawn),/,/,-1%,-3%,/,14%
NS(=O)(=O)c1ccc(N=Nc2ccc(O)c3ncccc23)cc1,/,/,4%,27%,/,-16%
O=C1OCCC/C1=C\c1ccc2c(c1)OCO2,/,/,-3%,8%,/,1%
CC(NC(=O)c1ccc(Cl)c(Cl)c1)c1ccc(-c2ccccc2)cc1 (stereo not drawn),/,/,1%,-5%,/,-20%
COC(=O)C1(C)NC(c2ccc(OC)cc2)C2C(=O)N(c3ccccc3)C(=O)C21 (stereo not drawn),/,/,-1%,6%,/,-22%
CSc1cccc(NC(=O)Nc2ccccc2C(N)=O)c1,/,/,3%,-4%,/,51%[activator]
CCCCCCCCCCOC(=O)Cn1c(COc2ccccc2)[n+](C)c2ccccc21,/,/,-8%,-1%,/,35µM*
CSc1nc(N)c2c3c(sc2n1)CN(C)CC3,/,/,1%,3%,/,2%

# These rows are one share of the data (hit frequency here may not be typical).
